Compound activity as filed in PubChem.
NPYLR7 ag: activates Aedes aegypti NPYLR7 receptor; HEK293T NPYLR7/Galpha15, GCaMP6s calcium fluorescence; activation, % at 10 µM; 0.15% of 270,000 active; in the data active means activation above about 40%;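 further: 0% = vehicle and 100% = reference agonist at the receptor; some compounds past the cut are filed as inactive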
NPYLR7 ag max-min: recorded beside NPYLR7 ag, whose call it bears; activation, %; measured here: Max-Min RFU normalised activation; some inactives read as strong as hits;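 span of the calcium signal over five minutes; 0% = vehicle and 100% = native peptide agonist; compound fluorescence can raise it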
Active calls of the source: *; & = joins results of further samples. Some of the compounds tested; rates above refer to the full screens.

Order of results: NPYLR7 ag max-min	NPYLR7 ag
- CC(C)(C)c1ccnc2nc(N3CCN(C(=O)c4cccnc4Cl)CC3)nn12
→ 3	5
- COC(=O)c1sc(NC(=O)C2COc3ccccc3O2)c(C(=O)OC)c1C (stereo unspecified)
→ 8	-6
- COc1ccccc1NC(=O)N1CCSC1c1ccc(C(F)(F)F)cc1 (stereo unspecified)
→ 0	-4
- CCCCc1csc(C(=O)Nc2cc(C(N)=O)ccc2Cl)n1
→ 5	4
- CCCNC(=O)CNS(=O)(=O)N1CCCCCC1
→ -7	-3
- O=C(NC1CC1)C(c1ccccc1)N1CCN(S(=O)(=O)c2cccc(Cl)c2)CC1 (stereo unspecified)
→ -13	-9
- O=C(NC1CCN(c2ccccc2C(=O)NCc2ccncc2)CC1)c1ccc(F)cc1
→ 14	2
- CC(C)N(Cc1cccc(OS(=O)(=O)c2cccc(C(F)(F)F)c2)c1)C(=O)Nc1cccc(Cl)c1Cl
→ 10	4
- NC(=O)c1ccc(-c2cnn3cccnc23)cc1
→ 10	13
- CC1=C(C(=O)OCC(C)C)C(c2ccccc2Cl)NC(=O)N1C (stereo unspecified)
→ -5	-2
- Cc1cc(C(=O)N2CCC3(CN(C)C(=O)O3)C2)c2c(C)nn(C)c2n1 (stereo unspecified)
→ 17	24
- Cc1ccc(NC2CCN(C(=O)CS(=O)(=O)C(C)C)CC2)nn1
→ 1	4
- CN(Cc1ncc[nH]1)c1nc(-c2cccnc2)nc2c1cnn2C
→ 5	3
- Cc1cc(C(F)(F)F)nc(CCNC(C)Cn2cncn2)n1 (stereo unspecified)
→ 6	7
- O=C(COc1ccc(Cl)cc1)N1CCN(S(=O)(=O)c2ccccc2Br)CC1
→ 16	12
- O=C1N(CCc2ccccc2)CCCC1(O)CNCc1cccc(F)c1F (stereo unspecified)
→ -4	-2
- O=C(N=C1N=C2C=CC(Br)=CN2Cc2ccccc21)C1CCCCC1
→ -5	-2
- Cc1ccc(S(=O)(=O)N(C)N(C(=O)c2ccccc2)C2=NS(=O)(=O)c3ccccc32)cc1
→ -27	-19
- CCSCCOC(=O)C1=C(C)NC(=O)NC1c1ccc2c(c1)OCO2 (stereo unspecified)
→ -4	4
- COC(=O)CCCCC(=O)N1CCN(C(c2ccccc2)c2ccc(Cl)cc2)CC1 (stereo unspecified)
→ 6	-6
- CCOc1ccc(CN2CCCn3cccc3C2c2cc(F)ccc2F)cc1 (stereo unspecified)
→ 10	0
- CC(=O)N1CCCC(S(=O)(=O)Oc2cccc(F)c2)C1 (stereo unspecified)
→ 2	5
- c1ccc(Oc2ccc(-c3cnn4c(NCc5ccc6c(c5)OCO6)ccnc34)cc2)cc1
→ -9	-5
- CC(=O)c1sc(NC(=O)Cn2[nH]c(=O)ccc2=O)nc1C
→ 5	4
- Cc1nc(C)c(Cc2cccc(C(F)(F)F)c2)c(N2CCN(C(=O)NC34CC5CC(CC(C5)C3)C4)CC2)n1
→ 4	-1
- Cc1cccc(C(=O)N2CCC(C(NC(=O)c3ccc(F)cc3)C(=O)N3CCOCC3)CC2)c1 (stereo unspecified)
→ 12	4
- O=C(NN1C(=O)NC2(CCCCC2)C1=O)C1COc2ccccc2O1 (stereo unspecified)
→ 36	0
- CNC(=O)c1cc(OC)c2ccccc2n1
→ -1	0
- CC1CCc2nc(NC(=O)c3ccc(F)cc3)sc2C1 (stereo unspecified)
→ 5	8
- NC(=O)[C@@H]1Cc2ccccc2N1S(=O)(=O)c1ccc(S(=O)(=O)N2CCCCC2)cc1
→ -6	-4
- CCn1cncc1CNC(=O)c1cn(CC2CCCNC2)nn1 (stereo unspecified)
→ 18	33
- O=S(=O)(c1cccc(C(F)(F)F)c1)N1CCN(c2nc(-c3ccccc3)nc3cc(Cl)ccc23)CC1
→ 28	19
- CCCC(C)NC(=O)CC1Sc2ccc(Cl)cc2NC1=O (stereo unspecified)
→ 14	2
- CCc1cc(S(=O)(=O)NCc2ccc3c(c2)OCO3)ccc1OC
→ -14	-14
- CCOC(=O)c1cc(-c2cccc(NC(=O)c3cccnc3SC)c2)n(-c2ccccc2OC)n1
→ 18	33
- CCOC(=O)c1c(N=c2oc3ccc(OC)cc3cc2-c2nc3ccccc3[nH]2)sc2c1CCCC2
→ -1	-7
- COc1cccc(-c2nc3c(c(SCC(=O)N4CCCCC4)n2)Cc2c(CO)cnc(C)c2O3)c1
→ 28	27
- CCC(NS(=O)(=O)c1ccccc1)c1ccccc1OCC(=O)NC (stereo unspecified)
→ 3	4
- CSCc1cccc(C(=O)Nc2cccnc2)c1
→ 4	2
- CCCCC(=O)Nc1cc(C)nn1-c1nc(-c2ccc(C)cc2)cs1
→ -14	-10
- O=C(CCc1nc2ccccc2c(=O)[nH]1)OCC(=O)N1CCSc2ccccc21
→ -5	-4
- COCCN(CC1CCCN(C2Cc3ccccc3C2)C1)C(=O)Cc1[nH]nc2ccccc12 (stereo unspecified)
→ 2	5
- Cc1cc(-c2cccc(C(C)N3CCCC3)c2)cnc1N (stereo unspecified)
→ 1	-2
- CSc1ccc2cc(CN(C)C(C)c3ccccn3)c(=O)[nH]c2c1 (stereo unspecified)
→ 6	18
- O=C(/C=C/c1ccco1)N1CCCC(CO)(CCc2ccccc2)C1 (stereo unspecified)
→ -2	-1
- C=CCN(CC(=O)N1CCc2sccc2C1c1ccc(C(C)(C)C)cc1)C(=O)COCc1ccccc1 (stereo unspecified)
→ -10	-3
- CCOc1ccc(-c2ccc(OCCNC(=O)CCCc3ccccc3)nn2)cc1
→ -1	0
- O=C(c1ccccc1OCc1cccnc1)N1CCC(O)(c2ccc(Br)cc2)CC1
→ 14	-7
- CSc1ccc2nc(N3CCN(C(=O)c4snnc4C)CC3)sc2c1
→ 9	10
- Cc1ccc(S(=O)(=O)Nc2ccc(Nc3nccn4c(-c5cc(C(F)(F)F)cc(C(F)(F)F)c5)cnc34)cc2)cc1
→ -3	4
- O=C1CC(c2cccc([N+](=O)[O-])c2)Sc2nc(C34CC5CC(CC(C5)C3)C4)nn21 (stereo unspecified)
→ 12	6
- COc1ccc(-n2ncc(Oc3cccc(OC)c3)c(Nc3ccc(C(=O)O)cc3)c2=O)cc1
→ 10	11
- CC(=O)NCc1nnnn1C1CCCCC1
→ 2	1
- CN1CCCC2(CCN(C(=O)c3cc4c(s3)CCCCC4)C2)C1=O (stereo unspecified)
→ -2	-1
- CC(C)Cn1c(SCCC(N)=O)nc2sc3c(c2c1=O)CCC3
→ -1	0
- CCOC(=O)N1CCN(C(=O)c2cc3ccsc3n2Cc2ccccc2OC)CC1
→ 20	8
- Cc1cc(=O)[nH]c2c(C)c(Cl)ccc12
→ -2	0
- COc1ccc2ccccc2c1CN1CCCC(CNC(C)=O)C1 (stereo unspecified)
→ -16	-7
- Cc1ccccc1C(=O)N1C(C(=O)NCc2cccc(C(F)(F)F)c2)COC12CCN(C(=O)C1CCC1)CC2 (stereo unspecified)
→ 3	-3
- O=C(O)CNC(=O)C1CCCCC1
→ 10	8

(further entries)
Order of results: NPYLR7 ag max-min	NPYLR7 ag
- Cc1[nH]nc2c1C(c1ccc(F)c(Oc3ccccc3)c1)c1c(N)noc1-2 (stereo unspecified)
→ 8	10
- N#CCCN(CCC#N)c1scc[n+]1Cc1ccccc1
→ 5	6
- O=C(c1cc(-c2ccsc2)n[nH]1)N1CCOC(Cc2ccccc2)C1 (stereo unspecified)
→ -2	0
- CCNC(=O)c1ccccc1-c1cc(OC)ccc1F
→ 3	6
- O=C(CC1CC2CCC1C2)NC(c1ccccc1)c1ccncc1 (stereo unspecified)
→ 1&2	2&6
- Cc1ccc2ncn(C3CCN(C(=O)CCc4cccs4)CC3)c2c1
→ 14	8
- Cc1cc(C)nc(N=Nc2c(O)[nH]c3ccc(Br)cc23)n1
→ -4	-3
- CC1CC(Nc2ccc(C(=O)N(C)C)cn2)C(=O)N1c1ccccc1 (stereo unspecified)
→ -20&2	-18&-1
- COC(=O)c1ccc(-n2c(C)cc(/C=N/n3cnnc3)c2C)cc1
→ 2	2
- COc1ccc(-c2nn(CCc3ccccc3)c(=O)c3nc(C)sc23)cc1
→ 2	4
- CCOc1cc(Nc2ccc(NC(=O)Nc3ccc(OC)cc3)cc2)nc(C)n1
→ 2	10
- CC1CN(c2cc(Cl)nc(SCC(=O)NCCc3ccccn3)n2)CCN1C(=O)c1ccc(Cl)cc1 (stereo unspecified)
→ -5	-5
- COCCNC(=O)Cn1nc2c(c1NC(=O)CC1CCCC1)CSC2
→ 5	-3
- Nc1ncnc(Nc2ccc(Br)cc2)n1
→ 29	16
- Cc1ccc(CCC2CCN(Cc3nc(N)nc(N)n3)CC2)cc1
→ 6	11

14 structures already listed, arranged by formula weight, highest first.
Order of results: NPYLR7 ag max-min	NPYLR7 ag
- CC1CN(c2cc(Cl)nc(SCC(=O)NCCc3ccccn3)n2)CCN1C(=O)c1ccc(Cl)cc1 (stereo unspecified)
→ -5	-5
- Cc1ccccc1C(=O)N1C(C(=O)NCc2cccc(C(F)(F)F)c2)COC12CCN(C(=O)C1CCC1)CC2 (stereo unspecified)
→ 3	-3
- COc1ccc(-c2nn(CCc3ccccc3)c(=O)c3nc(C)sc23)cc1
→ 2	4
- COCCNC(=O)Cn1nc2c(c1NC(=O)CC1CCCC1)CSC2
→ 5	-3
- Cc1ccc2ncn(C3CCN(C(=O)CCc4cccs4)CC3)c2c1
→ 14	8
- Cc1cc(C)nc(N=Nc2c(O)[nH]c3ccc(Br)cc23)n1
→ -4	-3
- CC1CC(Nc2ccc(C(=O)N(C)C)cn2)C(=O)N1c1ccccc1 (stereo unspecified)
→ -20&2	-18&-1
- Cc1ccc(CCC2CCN(Cc3nc(N)nc(N)n3)CC2)cc1
→ 6	11
- COC(=O)c1ccc(-n2c(C)cc(/C=N/n3cnnc3)c2C)cc1
→ 2	2
- O=C(CC1CC2CCC1C2)NC(c1ccccc1)c1ccncc1 (stereo unspecified)
→ 1&2	2&6
- N#CCCN(CCC#N)c1scc[n+]1Cc1ccccc1
→ 5	6
- CCNC(=O)c1ccccc1-c1cc(OC)ccc1F
→ 3	6
- Nc1ncnc(Nc2ccc(Br)cc2)n1
→ 29	16
- O=C(O)CNC(=O)C1CCCCC1
→ 10	8

Further compounds
Order of results: NPYLR7 ag max-min	NPYLR7 ag
- CC(C)(C)C1c2[nH]c3ccccc3c2CCN1Cc1cccnc1 (stereo unspecified)
→ -1	1
- CCC(C)N(Cc1ccccc1OS(=O)(=O)c1ccc(NC(C)=O)cc1)C(=O)C1CCC1 (stereo unspecified)
→ 9	6
- O=C(c1ccc(Cl)cc1)N(Cc1c(-c2ccccc2)noc1N1CCCCC1)C1CC1
→ 11	11
- Cc1nc2c(SCC(=O)N3CCCC3)nnc(-c3ccccc3)c2s1
→ -2	0
- NS(=O)(=O)c1ccc(Br)c(F)c1
→ -2	-1
- CCN(C(=O)CCc1ccccc1F)C(C)CO (stereo unspecified)
→ -5	-1
- CCOc1c(Br)cc(CNC(C)C2CCCO2)cc1Br (stereo unspecified)
→ -2	1
- COc1ccc(Cl)cc1Cn1cc(C(=O)NCc2ccc3c(c2)OCO3)sc1=O
→ 7	13
- Cc1cc2ccccc2n1CCC(=O)N[C@@H](CO)Cc1ccccc1
→ 5	16
- O=C(Nc1ccc(C(F)(F)F)cc1)N1CCSC1c1ccc(OCc2ccccc2)cc1 (stereo unspecified)
→ 3	0
- CCc1cc(CNC(=O)CC(c2ccccc2)c2ccc3c(c2)OCO3)on1 (stereo unspecified)
→ 2	3
- CCOC(=O)CN(C(=O)C1CCC1)[C@@H]1C[C@@H]2CO[C@H](C(C)C)C[C@@H]2C1
→ 12	13
- CCCCC(=O)Nc1ccc(NC(=O)C(C)n2ccnc2C)cc1 (stereo unspecified)
→ 12	27
- CC1(C)C(=O)NC(=O)N1Cc1nc(C2CC2)nn1-c1ccc2c(c1)OCCO2
→ 4	19
- Clc1ccc(CSc2nnc3c(n2)OC=Nc2ccccc2-3)cc1
→ 3	9
- CCN(NC(=O)C1CCN(C(=O)C(C)(C)C)CC1)c1ccc(C)cc1
→ 2	3
- Cc1cccc(-n2cc(CNCCN3CCCC(O)C3)c(-c3cccc(F)c3)n2)c1 (stereo unspecified)
→ 4	16
- COc1ccc(Cl)cc1Cn1c(C)c(C(=O)NCc2cccc3ccccc23)sc1=O
→ -8	-6
- Cc1cccc(C(=O)c2c(NC(=O)C3CCS(=O)(=O)C3)sc3c2CCCC3)c1 (stereo unspecified)
→ -1	1
- O=C(CCl)NCCc1ccc(F)cc1
→ -3	0
- COc1ccc(OCCN(C)Cc2cc3c(cc2O)OCO3)cc1
→ 11	13
- Fc1ccc(Cn2cccc2CN(Cc2cccc(Cl)c2)CC2CCCCC2)cc1
→ 1	1
- N#Cc1cccc(NC(=O)CCn2cnc3sccc3c2=O)c1
→ 0	0
- C=c1cc(C)n(CC(=O)Nc2ccsc2C(=O)OC)c(=O)c1=C1N=C(c2ccc(F)cc2)NO1
→ -6	-2
- CCOC(=O)c1c(NC(N)=O)sc(C)c1C
→ -4	-3
- Cc1cccc(COC(CN2CCN(C(=O)c3oc4ccccc4c3C)CC2)c2ccc(Cl)cc2)c1 (stereo unspecified)
→ 6	5
- CC(CN1CCOCC1)NC(=O)NC(C)(C)c1ccc2c(c1)OCO2 (stereo unspecified)
→ 3	2
- Cc1ccccc1NC(=O)CC1CSc2nccc(=O)n21 (stereo unspecified)
→ -2	-2
- CC1(C)CN(C(=O)Nc2ccc(-n3cncn3)c(F)c2)CCO1
→ 5	7
- Cc1nc2c(=O)n(CC(=O)Nc3ccc(C(C)C)cc3)nc(-c3ccco3)c2s1
→ 0	2
- CCOc1cccc(-c2ccc(C(=O)N3CCCC3)cn2)c1
→ -3	-3
- Cc1ccc(C)c(CC(=O)N2CCCCC2c2cc(C(=O)Nc3cccc(C#N)c3)no2)c1 (stereo unspecified)
→ 12	20
- CCn1c(SCCOC)nnc1-c1cn(C)nc1OC
→ 11	11
- O=c1c2cnc3ncnn3c2ccn1CCO
→ 7	3
